# Screening data deposited in PubChem BioAssay by National Center for Advancing Translational Sciences (NCATS).
# GLA inh pH 4.5 – qHTS Assay for Inhibitors of Human alpha-Galactosidase at pH 4.5 | Alpha-galactosidase A (Homo sapiens), P06280 | purified enzyme, 4-MU-alpha-Gal fluorescence, pH 4.5 | activity change, negative = inhibition, % at 105 µM | 230,000 tested, under 10 active; inconclusive = small, poorly fitted or top-dose-only inhibition, or a rising curve; inactive = flat fitted curve, though single readings scatter; no compound was filed as active;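 also: 0% = full activity with enzyme and -100% = basal without enzyme; dose as in the result columns while the protocol names 77 µM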
# Target sequence (P06280 whole entry, looked up): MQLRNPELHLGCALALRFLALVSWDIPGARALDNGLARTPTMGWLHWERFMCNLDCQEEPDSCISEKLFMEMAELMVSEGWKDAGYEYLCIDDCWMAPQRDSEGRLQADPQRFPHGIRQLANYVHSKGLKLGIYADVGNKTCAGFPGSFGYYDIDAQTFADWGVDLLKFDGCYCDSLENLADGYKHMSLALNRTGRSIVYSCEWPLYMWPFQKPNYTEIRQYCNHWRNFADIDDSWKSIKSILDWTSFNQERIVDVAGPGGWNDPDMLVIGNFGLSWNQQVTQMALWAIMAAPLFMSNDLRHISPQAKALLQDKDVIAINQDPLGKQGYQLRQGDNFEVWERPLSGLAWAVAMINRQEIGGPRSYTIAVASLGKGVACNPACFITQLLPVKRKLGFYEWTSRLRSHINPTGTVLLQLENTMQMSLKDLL
# Rango complex inh – qHTS Assay for Inhibitors of Rango (Ran-regulated importin-beta cargo) - Importin beta complex formation. Importin subunit beta-1 (Homo sapiens), Q14974. Potency, µM (doses to about 92.2 µM), for the others: top-dose inhibition of complex formation. Rango CFP/YFP FRET sensor + importin beta, 45 min. 340,000 tested, 0.031% active. AID 540263, 2011; active = rising FRET ratio curve, often small or poorly fitted; inconclusive = mostly compound fluorescence or quenching in the first reads; inactive = flat curves in all reads;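 also: potency is read from the fitted curve at half-maximal effect; 0% = DMSO wells and 100% = buffer wells lacking importin beta; nearly all actives have a fitted effect of over 15% in size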
#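 FRET biosensor (snurportin 1 IBB flanked by EYFP and cerulean), 50 nM, with compound 5 min, then 0.125 microM importin beta in PBS, 1 mM DTT, 0.02% Tween-20, 0.1% BSA. CFP/YFP ratio read after 45 min at room temperature; pre-read flags interference.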
# Rango dissoc inh – qHTS Assay for Inhibitors of RanGTP induced Rango (Ran-regulated importin-beta cargo) - Importin beta complex dissociation; AID 540253, 2011; Biochemical FRET Rango-importin beta, RanGTP-induced dissociation; Potency, µM (titrated, usually from 46.1 µM), inactives show at the highest dose activity change, negative = inhibition; 340,000 tested, 0.071% active; Snurportin-1 (Homo sapiens) + GTP-binding nuclear protein Ran (Homo sapiens) + Importin …; active means falling FRET ratio curve, often poorly fitted, with flat reads before Ran was added; inconclusive means other falling curves, or compound fluorescence or quenching; inactive means flat or rising ratio curve;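 also: potency is read from the fitted curve at half-maximal effect; % of control where 0% means no effect; nearly all actives have a fitted effect of over 45% in size; -100% = wells without RanGTP and RCC1; the record marks most hits as doubtful in a second field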
#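 Recombinant Rango FRET biosensor (EYFP–snurportin 1 IBB–cerulean CFP10) at 0.1 uM premixed with 0.25 uM importin beta in PBS, 1 mM DTT, 0.02% Tween-20, 0.1% BSA. Compound added 5 min; RanGTP-RCC1 (0.6 uM Ran, 2 mM GTP, 0.2 uM RCC1) then triggers release, read at 45 min.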
# miR-21 FLuc – qHTS Assay for Modulators of miRNAs and/orActivators of miR-21; Potency, µM (titrated, usually from 38.3 µM), for inactives: at the top dose reporter change, positive = more light; AID 2288, 2010; 340,000 tested, under 10 active; HeLa miR-21 FLuc reporter, luciferase, 48 h; active = well fitted rising curve with a large enough effect; inconclusive = small, poorly fitted or top-dose-only effect; inactive = no such curve, though single readings can be large or run the other way;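 also: % of control where 0% means no effect; miR-21 action dims this reporter so a rising signal means less miR-21 action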
#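 Using DMEM plus 10% FBS, HeLa miR-21-FLuc cells are incubated with test compounds (final up to about 40uM) for 48 hours; firefly luciferase signal is then imaged following reagent-mediated lysis.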
# Active calls of the source: *; ? = inconclusive; · = no result given; & = joins results of further samples.
# Results follow in this order: GLA inh pH 4.5	Rango complex inh	Rango dissoc inh	miR-21 FLuc
O=C(OC1CCCCC1=O)c1ccc(S(=O)(=O)Nc2ccccc2)cc1 (stereo unspecified)
 : 5	0.0%	8%	0%
O=S1(=O)CCO[C@H]2Cc3ccccc3[C@H]2N1Cc1cccc(Cl)c1
 : ·	-1.7%	-3%	4%
Cn1c(-c2sccc2OCc2ccccc2)n[nH]c1=S
 : 5	-1.4%	-1%	1%
Cn1c(=O)n(C)c2cc(NC(=O)CCl)ccc21
 : 1	-3.4%	8%	?
CCN(C[C@H]1N[C@@](C)(C(=O)OC)[C@H]2C(=O)N(C)C(=O)[C@@H]12)S(=O)(=O)c1ccc(C)cc1
 : ·	2.7%	-5%	·
Cc1cc(C(=O)Nc2ccc(F)cc2)c2ccccc2n1
 : ·	2.3%	-3%	-7%
COC(=O)c1cc(NC(=O)CN(c2ccc(OC)cc2)S(=O)(=O)c2ccc(F)cc2)ccc1Cl
 : -10	-0.8%	5%	?
COc1ccc(C(C)=O)cc1COC(=O)C1CCN(C(=O)c2ccc(Cl)cc2)CC1
 : ·	-2.0%	8%	·
C[C@H]1CN=C(Nc2ccccc2)N1CCc1ccc(F)cc1
 : ·	0.3%	-10%	·
CCN(CC)C(=O)CSc1nnc([C@@H](N)C(C)C)o1
 : 1	-0.9%	-8%	-1%
CCOC(=O)N1CCN(c2c(NCCCN(CC)c3cccc(C)c3)c(=O)c2=O)CC1
 : 0	-5.0%	0%	1%
COc1ccc(N/C=C\C(=O)c2ccc3ccccc3c2)cc1
 : ·	-0.4%	-6%	-55%
NC(=O)c1ccccc1NC(=O)Nc1cccc2ccccc12
 : -3	-0.6%	4%	1%
COc1cccc(C(=O)NCCS(=O)(=O)NCc2ccc3c(c2)OCO3)c1
 : ·	1.9%	-2%	·
CC(/C=C1\SC(=S)N(CCC(=O)Nc2ccccc2O)C1=O)=C\c1ccccc1
 : ·	0.8%	-5%	6%
Nc1nc(N2CCCCC2)nc(N2CCCCC2)n1
 : 0	-0.4%	-2%	-6%
CC(OC(=O)COc1ccccc1Cc1ccccc1)C(=O)N(C)c1ccccc1 (stereo unspecified)
 : ·	0.0%	10%	·
O=C(Nc1nnc(-c2ccccc2)o1)c1cccc(N2C(=O)CCC2=O)c1
 : 8	3.9%	7%	-5%
Cn1c(=O)cc(SCC(=O)Nc2ccc3c(c2)OCO3)c2ccccc21
 : 9	6.5%	-11%	-15%
N=c1c2c3c(sc2nc2n1CCC2)CCCC3
 : 3	0.8%	-19%	-3%
Cc1ccccc1N(C(=O)c1csnn1)C(C(=O)NC(C)(C)C)c1ccncc1 (stereo unspecified)
 : 3	-2.4%	1%	-6%
Nc1c(C(=O)O)sc2nc(-c3ccccc3)c3c(c12)CCCC3
 : 0	-4.4%	-23%	3%
CCc1ccc(-c2ccc(SCc3ccccn3)nn2)cc1
 : -3	15%	4%	-30%
Cc1nc(=O)c(-c2ccccc2)c(C)n1CCCO
 : -9	0.7%	-11%	-2%
CC(C)C(=O)Nc1ccc(-c2ccc3nncn3n2)cc1
 : 2	-1.4%	21%	4%
CC1CCN(CCc2nc3cc(NC(=O)COc4ccc(Cl)cc4)ccc3n2C)CC1
 : ·	-0.6%	16%	-2%
COCCCNC(=O)c1cc2cc([N+](=O)[O-])cc(OC)c2oc1=O
 : 0	-1.5%	27%	1%
Cc1ccccc1OC(C)C(=O)Nc1ccc2c(c1)OCCO2 (stereo unspecified)
 : ·	-0.7%	-2%	-50%
O=C(NCC(=O)N1CCCC1)c1ccc(Br)o1
 : ·	0.0%	-1%	-5%
COC(=O)Nc1ccc(S(=O)(=O)N2CCCC(C(=O)Nc3cccc4c3OCCO4)C2)cc1 (stereo unspecified)
 : -3	5.1%	-7%	16%
Cc1ccc(C)c(Cn2nnc(C(=O)Nc3ccc4c(c3)OCCO4)c2N)c1
 : ·	0.0%	12%	·
Cc1cccnc1CCNC(=O)c1ccc(OC2CCN(Cc3ccccn3)CC2)cc1
 : ·	-1.0%	-9%	-7%
O=C(COC(=O)c1ccc(F)c(S(=O)(=O)N2CCOCC2)c1)NCCc1ccc(F)cc1
 : ·	0.6%	1%	·
CC1(C)CC(=O)C2=C(C1)OC(N)=C(C#N)C21CCC2(CC1)OCCO2
 : 7	-3.8%	-31%	-5%
O=C(CCCOc1ccccc1)NCC1CCCO1 (stereo unspecified)
 : 2	4.0%	35%	-21%
COc1ccc(CCNC(=O)COC(=O)COc2c(C)cc(C)cc2C)cc1OC
 : ·	0.1%	31%	-4%
COc1cc2c(cc1OC)C(C)N(C(=O)c1sc(-c3cnccn3)nc1C)CC2 (stereo unspecified)
 : 4	0.1%	0%	-9%
CCC(C)[C@H](NC(=O)NCc1ccccc1Cl)C(=O)OC (stereo partly specified)
 : 4	2.4%	11%	3%
Cc1ccc(S(=O)(=O)CC(CN2CCCCC2)N2CCCCC2)cc1 (stereo unspecified)
 : 6	1.2%	0%	9%
Nc1ccc2nn(-c3ccccc3)nc2c1
 : 8	?	?	-44%
Cc1ccc([N+](=O)[O-])cc1-c1ccc2cccc(C)c2n1
 : -6	0.4%	32%	1%
O=C(c1ccco1)N1CCN(C(=O)c2[nH]ncc2[N+](=O)[O-])CC1
 : 2	2.6%	10%	-5%
O=C(NCCc1ccccc1)Nc1cccc(Cl)c1
 : -3	6.8%	12%	-43%
O=C(CN1C(=O)N/C(=C\c2ccccc2OCc2ccc(C(=O)O)cc2)C1=O)Nc1ccccc1F
 : ·	?	-7%	-8%
COCCCNC(=O)C(=O)NCC1CCCN1S(=O)(=O)c1cccs1 (stereo unspecified)
 : ·	-0.2%	-2%	·
COC(=O)NCC(c1ccco1)N1CCN(c2ccccc2)CC1 (stereo unspecified)
 : 2	0.3%	51%	-4%
O=c1[nH]c2ccccc2c(=O)n1CCCO
 : -5	-1.8%	-4%	1%
O=C(CSc1nnnn1-c1ccccc1)c1cc2ccccc2oc1=O
 : -2	-1.1%	-3%	-7%
Cc1cc(C)nc(SCc2cnc(C)nc2N)n1
 : 4	-2.9%	3%	-12%
O=C(Nc1ccncc1)c1cc(-c2ccccn2)nc2ccc(Br)cc12
 : -2	3.6%	?	-4%
Cc1ccc(S(=O)(=O)N2CCCCC2)cc1C(=O)NC1CC(C)(C)NC(C)(C)C1
 : ·	6.4%	-1%	·
Cc1c(Cl)cccc1NC(=O)CCC(=O)N/N=C/c1ccco1
 : ·	-1.6%	-7%	1%
COc1ccc(Cc2nnc(SCC(=O)NC(C)c3ccccc3)o2)cc1 (stereo unspecified)
 : -1	-1.7%	16%	-3%
Cc1nc(C(F)(F)F)nc(Nc2ccc(N=Nc3ccccc3)cc2)c1C#N
 : 2	-0.7%	-12%	1%
CCCCC(CCC(=O)Nc1ccccc1C(=O)OCC)C(=O)O (stereo unspecified)
 : 7	2.1%	0%	-11%
CN(c1ccccc1C(=O)NC1CCCCC1)S(=O)(=O)c1ccccc1
 : -3	0.4%	-7%	3%
O=C1C=CC[C@H](/C=C/C[C@@H](O)C[C@H](O)CCc2ccccc2)O1
 : ·	-1.3%	0%	·
Cc1[nH]c(C)c(S(=O)(=O)NCc2ccccc2Cl)c1C(=O)N1CCCC1
 : ·	-1.0%	-8%	-4%
Oc1ccc(CNC2CCCCC2)cc1
 : 1	3.8%	-19%	-4%
Cc1ccc(C)c(NC(=O)Cn2nnc(C(=O)NCc3ccco3)c2N)c1
 : ·	1.5%	26%	19%&19%

# The listing continues:
# Results follow in this order: GLA inh pH 4.5	Rango complex inh	Rango dissoc inh	miR-21 FLuc
C/C(CC(=O)Nc1cccnc1)=N/NC(=O)COc1ccc(Cl)cc1Br
 : 2	-2.0%	-13%	0%
COc1ccc(Cl)cc1NC(=O)C(C)N1CCc2ccccc21 (stereo unspecified)
 : -16	-0.1%	5%	-2%
Cc1ccc(C(=O)CC2(O)C(=O)N(C)c3ccc(Br)cc32)c(C)c1 (stereo unspecified)
 : 5	-3.6%	?	0%
CC1CN(S(=O)(=O)c2cccc(C(=O)NNC(=O)C(C)Oc3ccccc3F)c2)CC(C)O1 (stereo unspecified)
 : ·	3.4%	1%	·
O=C(NCCCn1ccnc1)c1ccco1
 : 4	2.3%	-6%	-2%
Cc1cc2ccccn2c1C(=O)c1nc(NCc2ccccc2)ncc1Cl
 : -4	0.8%	-4%	8%
Cc1ccnn1CC(=O)N/N=C/c1ccc([N+](=O)[O-])s1
 : 1	-0.3%	-6%	?
COc1ccc(NC(=O)NNS(=O)(=O)c2cc(C)ccc2C)cc1OC
 : ·	2.3%	-2%	-1%
COc1cc2c(C(=O)Nc3ccc4c(c3)OCO4)cn(CC(C)C)c(=O)c2cc1OC
 : 7	·	·	13%
Cn1c(-c2ccc3c(c2)OCO3)cnc1NC(=O)CCC(=O)NCCc1ccccc1
 : 4	2.3%	11%	-26%
COC(=O)C(Cc1cnc(Cl)s1)(C(=O)OC)c1ccc([N+](=O)[O-])cc1
 : -6	0.7%	12%	-2%
CCOc1ccc(N2CC(C(=O)NC3=NCCS3)CC2=O)cc1 (stereo unspecified)
 : 2	0.0%	11%	-2%
CCC(C)NC(=O)CN(C1CCCCC1)S(C)(=O)=O (stereo unspecified)
 : 9	-1.3%	-7%	-2%
CCN(CC(=O)Nc1c(F)cccc1F)C(=O)Cc1ccc(S(=O)(=O)N2CCOCC2)s1
 : ·	-2.5%	-3%	·
Cc1ccc2nc(-c3ccc(O)cc3)c(Nc3ccc4c(c3)OCCO4)n2c1
 : -12	0.6%	-5%	-15%&-14%

# By substructure, the entries above containing a cyano group
# Results follow in this order: GLA inh pH 4.5	Rango complex inh	Rango dissoc inh	miR-21 FLuc
CC1(C)CC(=O)C2=C(C1)OC(N)=C(C#N)C21CCC2(CC1)OCCO2
 : 7	-3.8%	-31%	-5%
Cc1nc(C(F)(F)F)nc(Nc2ccc(N=Nc3ccccc3)cc2)c1C#N
 : 2	-0.7%	-12%	1%

# (list continues)
# Results follow in this order: GLA inh pH 4.5	Rango complex inh	Rango dissoc inh	miR-21 FLuc
Cc1ccc(NC(=O)CN(C)C(=O)c2ccc(NS(=O)(=O)c3ccc4[nH]c(=O)[nH]c4c3)cc2)cc1
 : ·	-6.3%	-4%	·
CC(C)[C@H](NC(=O)OCc1ccccc1)C(=O)N[C@@H](Cc1c[nH]c2ccccc12)C(=O)O
 : ·	1.7%	0%	·
Nc1nc(C23CC4CC(CC(C4)C2)C3)cs1
 : 0	0.0%	-3%	-8%
Cc1ccc(S(=O)(=O)N(CC(=O)N2CCCC2)C2CCCCC2)cc1
 : -3	0.0%	-2%	-4%
CCc1cccc(C)c1NC(=O)C1CCN(c2nn3c(=O)cc(C)nc3s2)CC1
 : ·	3.1%	7%	1%&-7%
Cc1ccc(-c2ccc(CCC(=O)O)n2-c2cccc(C(=O)O)c2)cc1
 : ·	?	8%	-40%
Cc1ccc(CN(C(=O)c2csnn2)C(C(=O)NC2CCCC2)c2ccc(C)o2)cc1 (stereo unspecified)
 : 1	-4.5%	-3%	-5%
COC(=O)CC(C(=O)Nc1cc(C(=O)OC)cc(C(=O)OC)c1)N1CCN(C)CC1 (stereo unspecified)
 : ·	0.4%	1%	·
S=c1[nH]c(-c2ccccc2)cn1/N=C/c1ccccc1Br
 : -12	0.2%	-7%	-10%
COc1ccc(NC(=O)C2CCCN(S(=O)(=O)c3ccc4c(c3)oc(=O)n4C)C2)c(OC)c1 (stereo unspecified)
 : -16	-0.5%	11%	12%&-3%
CCCCN(CC)C(=O)/C=C/c1cccc([N+](=O)[O-])c1
 : 2	0.2%	17%	-14%
Clc1ccc(N2COC3c4cccc5cccc(c45)C32)cc1 (stereo unspecified)
 : 0	-0.1%	-7%	-22%
O=C(CSc1nc(-c2ccccc2)c(-c2ccccc2)o1)N1CCOCC1
 : -10	5.2%	-15%	3%

# A portion of the library (hit frequency here may not be typical).
